A1 inh: inhibitors of the anti-apoptotic protein A1, read as caspase activation | 330,000 compounds, 0.066% hits | caspase activation, % (concentration not given with the values) | AID 2462 | MEF A1-2A-BIM cells, Caspase-Glo 3/7 luminescence, 3 h; percent of clofoctol response, vehicle zero;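 active = over half of replicate activation scores above 10%, or exactly half above 10 with the replicate mean above 10; inconclusive = replicate mean below 10 yet half the replicates above 10; inactive = over half of replicates below 10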;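 also: wells of about 30 µL received 50 nL stock; many hits fall short of the cut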
T cruzi repl: blocks replication of Trypanosoma cruzi | T. cruzi beta-gal in NIH3T3, luminescence, 90 h | inhibition, % (concentration not given with the values) | 300,000 compounds, 1.4% hits;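 active = mean inhibition across valid replicates above about 55%, limit read from the data; inconclusive = mean below that limit but half or more replicates reach it; inactive = mean below it, under half of replicates reach it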;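 also: signal also drops with host cell toxicity which is not excluded here; 0% = plate median of DMSO wells and 100% = zero luminescence signal; higher percent means less beta-gal luminescence so fewer parasites; stock transfer was 50 nL into about 50 µL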
Calb FLC: affects C. albicans growth with fluconazole | C. albicans CaCi-2 (fluconazole-resistant clinical isolate) + fluconazole, Alamar Blue growth, 48 h | growth inhibition, % (concentration not given with the values) | 300,000 compounds, 0.57% hits;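 active = most replicates above 75%; inconclusive = exactly half above 75%; inactive = most below 75%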;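 also: all wells also contain fluconazole at 8 µg/ml as a sub-toxic cotreatment; 0% = median of DMSO wells and 100% = median of geldanamycin control wells; wells of about 8 µL received 7.5 nL stock; the first replicate is given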
LANA-H2B inh: blocks KSHV LANA binding to histone H2A/H2B; Q9QR71; cell-free LANA-H2A/H2B peptide, fluorescence polarization; inhibition, % (concentration not given with the values); 320,000 compounds, 0.6% hits; in the data active = inhibition mostly above about 10%, no sharp cut-off; inactive = mostly below about 6.7%;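 also: stock transfer was 7.5 nL into about 10 µL; 0% = median of vehicle wells and 100% = median of positive control wells; one replicate is shown; the record names a cut of 25% in any replicate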
B2AR ag: activates human beta-2 adrenergic receptor causing internalization; 340,000 compounds, 0.43% hits; response, % (test concentration not listed); P07550; AID 504454; Am2.2-beta2AR cells, FAP receptor internalization, flow cytometry; reference of the scale not given here;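 active = response above a set limit, near 3 SD of response in nonfluorescent compounds, cut at about 42% in these data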;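 also: stock transfer was 100 nL into about 11 µL; a reference agonist was the positive control; negative values mostly stem from fluorescent compounds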
Target sequence (P07550 whole entry, looked up): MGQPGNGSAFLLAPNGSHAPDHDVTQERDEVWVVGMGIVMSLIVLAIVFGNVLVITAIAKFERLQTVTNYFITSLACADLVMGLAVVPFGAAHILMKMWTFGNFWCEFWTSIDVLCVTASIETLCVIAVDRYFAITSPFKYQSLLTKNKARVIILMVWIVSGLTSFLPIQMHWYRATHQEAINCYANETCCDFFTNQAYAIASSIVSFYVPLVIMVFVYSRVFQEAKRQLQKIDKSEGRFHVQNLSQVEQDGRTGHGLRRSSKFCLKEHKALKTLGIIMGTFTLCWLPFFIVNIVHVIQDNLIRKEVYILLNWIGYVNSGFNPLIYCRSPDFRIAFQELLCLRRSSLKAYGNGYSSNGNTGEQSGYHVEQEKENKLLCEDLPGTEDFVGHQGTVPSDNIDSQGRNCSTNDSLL
RanGTP-Impb inh: disruptors of Ran-importin-beta complex formation – biochemical, FRET, CFP-Ran, YFP-importin-beta, homogeneous, primary screen | cell-free CFP-Ran/YFP-importin-beta FRET ratio | inhibition, % (concentration not given with the values) | 300,000 compounds, 1.1% hits | AID 2216;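 active = most replicates above 15%; inconclusive = exactly half above 15%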;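 also: 0% = DMSO wells and 100% = Ran loaded with GDP instead of GTP; wells of about 40 µL received 100 nL stock; the first replicate is given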
Beta apoptosis: blocks beta cell apoptosis. INS-1E cytokine-induced death, ATP luminescence, 48 h; percent of positive-control rescue, neutral wells zero. protection from apoptosis, % (concentration not given with the values). AID 435005. 300,000 compounds, 0.8% hits;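 active = all replicates at 75% or more, or half of them and the mean; inconclusive = half reach 75% but not the mean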;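 also: 0% = cytokine-treated negative control wells and 100% = positive control rescue; higher means more ATP so stronger rescue from cytokine killing; wells of about 40 µL received 100 nL stock; the first replicate is given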
UCH37 inh: blocks the human deubiquitinase UCH37; Q9Y5K5; purified proteasome/UCH37, Ub-AMC cleavage fluorescence; inhibition, % (test concentration not listed); 330,000 compounds, 0.33% hits;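 active = mean of two replicates above 20%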;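 also: 0% = compound-free wells with enzyme and 100% = wells lacking proteasome; stock transfer was 100 nL into about 20 µL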
Target sequence (Q9Y5K5 whole entry, looked up): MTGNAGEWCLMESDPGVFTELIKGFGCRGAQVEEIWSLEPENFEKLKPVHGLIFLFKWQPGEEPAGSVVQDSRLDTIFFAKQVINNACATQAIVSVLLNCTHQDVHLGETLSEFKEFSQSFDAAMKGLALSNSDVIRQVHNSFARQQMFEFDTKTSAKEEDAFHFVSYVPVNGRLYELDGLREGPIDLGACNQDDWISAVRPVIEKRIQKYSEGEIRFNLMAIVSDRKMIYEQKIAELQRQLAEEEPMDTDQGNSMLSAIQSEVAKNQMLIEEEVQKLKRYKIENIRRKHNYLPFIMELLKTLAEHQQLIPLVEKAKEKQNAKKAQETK
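Reagent: Ub-AMC substrate; assay system: Proteasome-associated human UCH37 deubiquitinase; controls: no-proteasome and no-compound wells; read-out: % inhibition of Ub-AMC cleavage fluorescence; timing: 30 min preincubation with enzyme, 25 min cleavage at room temperature; signal: AMC fluorescence from Ub-AMC cleavage, excitation 355 nm, emission 460 nm; buffer or medium: Tris-HCl pH 7.4 plus ovalbumin, ATP-MgCl2, DTT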
Numbers without * were called inactive; ? = inconclusive; · = no result given.

Molecule | B2AR ag | A1 inh | LANA-H2B inh | UCH37 inh | RanGTP-Impb inh | Calb FLC | T cruzi repl | Beta apoptosis
Cc1sc2ncn(CC(=O)N3CCC(C(N)=O)CC3)c(=O)c2c1S(=O)(=O)N1CC(C)CC(C)C1 (stereo unspecified) | 1 | -1.0 | 5.2 | 2.1 | 9.7 | 1 | 0 | -12
CNC(=O)CN(c1cc(C)ccc1C)S(C)(=O)=O | -1 | 0.1 | -1.9 | 5.2 | 1.8 | -5 | -2 | -3
CNC(=S)N(Cc1cc2ccc(OC)cc2[nH]c1=O)CC1CCCO1 (stereo unspecified) | -2 | 0.6 | 0.6 | 3.7 | 6.5 | 6 | -2 | 2
CC(=O)OC(C)(CCC(C)(OC(C)=O)C(C)=O)C(C)=O (stereo unspecified) | 17 | · | · | 1.0 | 3.3 | · | -12 | ·
NC(=O)c1sc2nc(-c3ccccc3)ccc2c1N | -10 | -0.7 | 1.8 | -101 | 5.0 | 45 | -10 | -13
Cc1ccc(-n2ccc(=O)c(C(=O)Nc3ccc(S(=O)(=O)N4CCOCC4)cc3)n2)cc1 | -8 | -0.1 | 0.9 | 3.0 | ? | -2 | 43 | 1
Cc1ccc(S(=O)(=O)NCC(=O)OCCOc2cccc(Cl)c2)cc1 | 3 | -0.5 | -6.4 | 3.6 | · | · | · | -6
Cc1ccc(N(CC(=O)NCC2CCCO2)C(=O)CCC(=O)Nc2ccccn2)cc1C (stereo unspecified) | 0 | -0.9 | -1.6 | -1.0 | -2.2 | 0 | -7 | -8
COc1ccc2nc(SCc3cccnc3)c(C#N)cc2c1 | -12 | ? | -0.6 | 0.4 | -0.1 | 21 | 13 | -1
O=C(COC(=O)c1ccccc1[N+](=O)[O-])NNC(=O)c1cccs1 | -4 | -0.3 | -1.8 | 0.1 | -5.0 | -1 | -1 | 2
O=C(NCc1ccccc1)C12CN(Cc3ccccc3)CC1C(c1cccc([N+](=O)[O-])c1)=NO2 (stereo unspecified) | 6 | 0.1 | -0.6 | -1.8 | -0.9 | -11 | 28 | -6
COc1cccc(C(=O)NC(=S)Nc2ccccc2N2CCCCC2)c1 | 24 | -1.9 | 2.6 | 8.1 | -0.2 | 11 | 52 | ·
CC(C)(C)NC(=O)C1CCC(C)(C(=O)O)C1(C)C (stereo unspecified) | 5 | 0.9 | -3.4 | 3.0 | 0.4 | 0 | -5 | ·
O=C(CSc1ccccc1C(=O)O)c1ccc([N+](=O)[O-])cc1 | -7 | -0.1 | 5.8 | 4.3 | 4.9 | -4 | -3 | -23
CC1=C(C(=O)Nc2ccccc2)C(c2ccco2)C(C#N)=C(SCC(=O)OC(C)C)N1 (stereo unspecified) | 10 | 0.5 | 0.6 | 2.0 | 0.5 | ? | 27 | -3
CC1(C)OC(=O)C=C[C@]2(C)[C@H]3CC[C@@]4(C)[C@H](C(=O)O)OC(=O)[C@H]5O[C@]54[C@]3(C)C(=O)C[C@@H]12 | -14 | -0.8 | -1.2 | 2.9 | · | · | · | 1
COc1ccc(C(=O)C2CCCN(C(=O)c3cc(C(C)C)no3)C2)cc1F (stereo unspecified) | -2 | 0.9 | -1.8 | 0.6 | -3.0 | -21 | 13 | -2
COc1ccccc1CN1C(=O)CN(C2CCCC2)C(=O)C1c1ccc(F)cc1 (stereo unspecified) | 5 | 0.4 | 2.6 | 3.8 | -1.3 | -23 | -4 | 3
O=C(CC1NCCNC1=O)Nc1ccc([N+](=O)[O-])cc1 (stereo unspecified) | 3 | -0.9 | -4.5 | 5.4 | -0.7 | -3 | -18 | ·
CCc1ccc(N(CC(=O)NCc2ccc(OC)cc2)C(=O)CCC(=O)Nc2ccccn2)cc1 | 4 | -1.1 | -2.6 | 4.6 | ? | 10 | 5 | -2
COc1cccc(OC)c1C(=O)NC(=S)Nc1cccc(NC(=O)c2ccco2)c1 | -5 | 0.8 | -6.2 | 0.0 | -0.2 | 2 | 11 | -6
Cc1nn(-c2ccccc2)c(C)c1C(=O)OCC(=O)N1c2ccccc2NC(=O)C1(C)C | 8 | -0.1 | 6.1 | 0.7 | 2.2 | 33 | 6 | -1
Cc1cc([N+](=O)[O-])c(C)cc1-c1ccc(/C=N/NC(=O)Cn2nnnc2N)o1 | 4 | -0.5 | 6.6 | · | -5.4 | 23 | 1 | -3
COc1ccc2c(c1OC)C(=O)N(c1cccc(NC(C)=O)c1)C2 | 19 | -0.4 | 3.3 | 2.6 | -0.3 | -1 | -13 | 3
Cc1ccc(S(=O)(=O)Nc2c(C)nc3nc(C)[nH]n3c2=O)cc1 | 7 | 0.5 | 2.2 | 1.9 | 1.1 | -4 | -17 | -4
CC(=O)N1CCN(Cc2nc3cc(NC(=O)COc4cccc(C)c4)ccc3n2C)CC1 | 5 | 1.0 | -7.8 | -1.2 | 2.4 | 0 | -6 | 1
COc1ccccc1CNC(=O)C1CCN(S(=O)(=O)c2ccc3c(c2)CC(C)N3C(=O)C2CC2)CC1 (stereo unspecified) | -14 | -0.9 | -3.0 | 0.9 | -2.2 | 1 | 3 | 4
CC(C)CCN1CCNC(=O)C1CC(=O)N(C)CCCN1CCOCC1 (stereo unspecified) | 2 | -0.2 | 0.2 | 1.4 | 4.2 | -3 | -6 | 1
COc1ccccc1CN(Cc1cccnc1)S(=O)(=O)c1ccc(-n2cnnn2)c(OC)c1 | -1 | 0.6 | -10 | 2.2 | 3.2 | 0 | 35 | 4
CCOC(=O)CCn1c(CC(=O)OCC)nc2ccccc21 | 1 | 1.3 | 2.2 | 1.4 | 1.0 | -9 | 10 | 1
C=CCNC(=O)CCNS(=O)(=O)c1ccc(Br)cc1 | 1 | 0.7 | 7.0 | 0.8 | · | -6 | -14 | -2
CC(C)(C)c1cc(CN2CCN(CCO)CC2)cc(C(C)(C)C)c1O | 0 | -0.4 | -3.1 | 2.6 | 6.3 | 6 | -3 | -2
O=C(CNC(=O)CNC(=O)c1ccc(Cl)cc1Cl)NCc1cccc(Cl)c1 | -7 | 0.9 | -4.7 | 0.0 | -1.1 | -5 | -6 | -3
COc1ccc(N(C(=O)c2csnn2)C(C(=O)NC2CCCC2)c2cccs2)cc1 (stereo unspecified) | 1 | 0.4 | -0.5 | -2.1 | 1.0 | -5 | 4 | 4
Cc1cc2ncn(CC(O)COC3CCCCC3)c2cc1C (stereo unspecified) | -1 | 1.2 | -0.6 | -2.3 | 4.3 | -7 | -31 | 6
O=[N+]([O-])/C=C/c1c(OCc2ccccc2)ccc2ccccc12 | 89* | 0.9 | -1.1 | · | -1.3 | 9 | 54 | 115*
CCc1ccc(NS(=O)(=O)c2ccc(OC)c(C)c2)cc1 | 7 | -0.1 | -1.2 | 0.1 | -1.7 | -49 | -12 | -7
NS(=O)(=O)c1ccc(N=Cc2c(O)c3ccccc3oc2=O)cc1 | -2 | 0.0 | -1.7 | · | ? | 10 | -4 | -3
COc1ccc(OC)c(CN2CCN(Cc3cccc4ccccc34)CC2)c1 | 4 | -0.2 | 1.7 | 4.1 | 2.9 | -2 | 19 | 2
Cc1ccc2c(c1)c(Sc1ccccc1)c(CC(=O)O)n2C | 0 | 0.7 | -1.3 | 2.0 | -0.2 | -29 | -4 | -5
O=C(CCN1C(=O)[C@@H]2Cc3ccccc3CN2C1=O)N[C@H](C(=O)O)c1ccccc1 | -3 | -0.2 | 0.8 | 1.3 | -0.5 | -5 | -6 | -7
CN1CCN(C(=O)c2ccccc2NC(=O)C(C)(C)C)CC1 | 13 | -0.3 | 1.5 | 1.1 | 3.3 | -11 | 0 | -4
Cc1cc(C)c2cc(C=O)c(Cl)nc2c1 | 37 | 0.6 | -4.4 | -10 | · | · | 0 | 7
OC1c2cc(Br)ccc2N=C2CCCN21 (stereo unspecified) | 30 | 1.1 | 0.2 | 3.1 | -1.7 | 19 | 55* | 15
O=[N+]([O-])c1cc([N+](=O)[O-])c(Oc2c(F)cccc2F)cc1NN1CCCCC1 | 2 | 0.0 | 0.1 | -0.6 | ? | 9 | -25 | 5
COc1ccc(C(=O)Nc2nnc(SCC(=O)NCc3ccco3)s2)cc1OC | 7 | -0.5 | -0.9 | -11 | 8.1 | 3 | 3 | 8
O=C(CCNC(=O)c1ccc(Cl)cc1)NCC(c1ccco1)N1CCCCC1 (stereo unspecified) | -1 | 0.1 | -7.4 | 1.4 | 6.9 | -6 | 7 | 1
O=C(CNC(=O)C12CC3CC(CC(C3)C1)C2)NC1=NCCS1 | -6 | 0.6 | 0.8 | -1.0 | 1.7 | 6 | -17 | -13
O=C1CC(N2CCN(S(=O)(=O)c3ccccc3F)CC2)C(=O)N1c1ccc(F)cc1F (stereo unspecified) | -4 | -0.7 | 0.0 | 1.0 | · | · | · | 3
Cc1cc(C)c(C#N)c(SCCS(=O)(=O)Cc2ccccc2)n1 | 0 | 0.6 | 0.5 | 1.5 | 1.5 | -24 | -4 | -1
Cn1cc([N+](=O)[O-])c(C(=O)N/N=C/c2ccc([N+](=O)[O-])cc2)n1 | -6 | -0.2 | -11 | · | 3.9 | 13 | -5 | -6
O=C(/C=C/c1ccc(F)cc1)NCc1cccs1 | 3 | 0.1 | 2.3 | 3.2 | 8.8 | 3 | -6 | 2
CC(C)(C)N=C1C([N+](=O)[O-])=CC=C2C1=NC1(CCCCC1)N2O | 15 | 1.8 | -3.1 | 3.8 | ? | -3 | -7 | ·
C=CCN1C(=O)c2ccc(C(=O)OCC(=O)N3CCN(c4ccccc4)CC3)cc2C1=O | 6 | -0.2 | 8.4 | -2.8 | -1.8 | 7 | -18 | 3
Cc1ccc(C(=O)NCC(=O)N/N=C/c2cccs2)cc1C | -3 | -0.2 | -2.0 | · | 0.7 | -7 | -11 | -2
C=CCN(C(=O)C1=NN(C2CCS(=O)(=O)C2)C(=O)CC1)c1nc(-c2ccc([N+](=O)[O-])cc2)cs1 (stereo unspecified) | 6 | -0.8 | -1.4 | 4.4 | 1.6 | -1 | 11 | 7
Cc1cc(C)n2nc(C)c(-c3ccccc3)c2n1 | -2 | -0.1 | -1.4 | 5.8 | 4.5 | -13 | 5 | -3
CC1CCN(CCCNC(=O)c2ccc3c(=O)n(CCc4ccccc4)c(=O)[nH]c3c2)CC1 | -6 | 0.1 | 1.9 | -17 | 4.8 | -5 | 1 | -1

Single records (already shown). Values in the order: B2AR ag, A1 inh, LANA-H2B inh, UCH37 inh, RanGTP-Impb inh, Calb FLC, T cruzi repl, Beta apoptosis
CCc1ccc(N(CC(=O)NCc2ccc(OC)cc2)C(=O)CCC(=O)Nc2ccccn2)cc1 is listed with 4, -1.1, -2.6, 4.6, ?, 10, 5, -2
Cc1ccc(S(=O)(=O)Nc2c(C)nc3nc(C)[nH]n3c2=O)cc1 is listed with 7, 0.5, 2.2, 1.9, 1.1, -4, -17, -4
